Screens as filed in PubChem.
HPGD inh = HPGD (human) dehydrogenase inhibition; P15428; purified HPGD, NADH fluorescence kinetic, PGE2 substrate; Potency, µM, without a hit: at the highest dose activity change, negative = inhibition, hits mostly inhibitors; 150,000 compounds, 4.3% hits; active = well fitted inhibition curve with a large enough effect (not every such curve was filed as active); inconclusive = small, poorly fitted or top-dose-only effect, or another doubt; inactive = no such curve, though single readings can be large or run the other way;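 further: top concentration of the series not given in the record; plate controls included wells without enzyme; inactives centre near -10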
Target sequence (P15428 whole entry, looked up): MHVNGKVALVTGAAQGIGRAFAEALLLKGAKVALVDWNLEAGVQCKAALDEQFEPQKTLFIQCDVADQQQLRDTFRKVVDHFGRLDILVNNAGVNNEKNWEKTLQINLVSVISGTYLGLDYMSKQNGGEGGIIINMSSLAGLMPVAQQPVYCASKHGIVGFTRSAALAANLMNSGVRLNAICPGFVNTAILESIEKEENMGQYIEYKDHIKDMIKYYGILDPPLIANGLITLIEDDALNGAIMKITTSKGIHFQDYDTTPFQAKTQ
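NADH formation kinetics: reaction with 30 uM PGE2 and 1 mM NAD+ (final), 20 nM enzyme, Tris-HCl pH 8 with Tween 20, after 15 min compound preincubation at room temperature. Fluorescence change, last versus first of five reads.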
Starred values were filed as active, the others as inactive; & = joins results of further samples. On the % scale 0 is the no-effect control and ±100 the full control effect; potency means the concentration at half of the fitted maximal effect. Some of the compounds tested; the hit share may differ from the screen's.

Screening O=C(Nc1ccc(Cl)cc1F)c1cc(S(=O)(=O)N2CCCCC2)ccc1F returned HPGD inh -7%.
For Cn1c(N)c(C#N)c2c(c1=S)CSC(C)(C)C2 the results were HPGD inh -12%.
O=C1c2cccc([N+](=O)[O-])c2C(=O)N1c1ccccc1 was read as HPGD inh -8%.
Screening CS(=O)(=O)N1CCC2(CCCN(C(c3ccccc3)c3ccccc3)C2)CC1 returned HPGD inh 1%.
For COc1ccc(N(C(=O)Cc2cccs2)C(C(=O)NC2CCCCC2)c2cccn2C)cc1OC (stereo not drawn) the results were HPGD inh -2%.
O=C(NCCO)c1nc(NCCO)c2ccccc2n1 was read as HPGD inh -10%.
`CC1Cc2ccccc2N1C(=O)C12CCC(C)(C(=O)C1)C2(C)C` (stereo not drawn) gave HPGD inh -3%.
Screening CCCCSc1nnc(-c2c[nH]c3ccccc23)n1C returned HPGD inh -12%.
`CCCCN(CC)CCCNC(=O)CS(=O)(=O)Cc1nc(-c2cccc(OC)c2)oc1C` gave HPGD inh -25%.
For CCN(CC)C(=O)CN(c1cc2c(cc1OC)oc1ccccc12)S(=O)(=O)c1ccc(C)cc1 the results were HPGD inh 7%.
COC(=O)CSc1nsc(SCC(=O)OC)n1 was read as HPGD inh -11%.
For CC(=O)OCn1nnc2ccccc2c1=O the results were HPGD inh -14%.
For CCOc1ccc(C=NC23CN4CN(CN(C4)C2)C3)cc1 the results were HPGD inh -11%.
Cc1cccc(-c2nc(CS(=O)CC(=O)NCc3cccs3)c(C)o2)c1 (stereo not drawn) was read as HPGD inh -10%.
`CC1=CC2=NC(=O)/C(=C\c3ccc(-c4cccc(Cl)c4)o3)C(=N)N2O1` gave HPGD inh -4%.
For C=CCC(C)(O)CCc1ccccc1 (stereo not drawn) the results were HPGD inh 3%.
For Oc1ccc(NCc2ccccc2OCc2ccccc2F)cc1 the results were HPGD inh -23%.
Screening O=C1C2CCCN2C(=O)N1CCCCN1CCN(c2ccc(F)cc2)CC1 (stereo not drawn) returned HPGD inh 8%.
Screening O=C(CCCCCN1C(=O)CCC1=O)Nc1ccc(Br)cc1F returned HPGD inh -8%.
CCOC(=O)c1c(NC(=O)C(=O)N/N=C/c2ccc(O)c(OC)c2)sc2c1CCCCC2 was read as HPGD inh -21%.
COc1cc2c(N3CCOCC3)cc(O)c(CC(=O)Nc3ccccc3)c2cc1OC was read as HPGD inh inconclusive.
O=C(O)c1c(Cl)c(Cl)c(Cl)c(Cl)c1C(=O)N1CCOCC1 was read as HPGD inh 1%.
`CCC(=O)NC(c1ccc([N+](=O)[O-])cc1)c1c(O)ccc2ccccc12` (stereo not drawn) gave HPGD inh -6%.
For COC(=O)CNc1ccc2c(c1)OCO2 the results were HPGD inh -5%.

Sorted by number of heavy atoms (highest first): 3 of the compounds above.
Screening O=C1C2CCCN2C(=O)N1CCCCN1CCN(c2ccc(F)cc2)CC1 (stereo not drawn) returned HPGD inh 8%.
For Oc1ccc(NCc2ccccc2OCc2ccccc2F)cc1 the results were HPGD inh -23%.
For C=CCC(C)(O)CCc1ccccc1 (stereo not drawn) the results were HPGD inh 3%.

Later entries:
For COC(=O)Nc1ccc2c(c1)N(C(=O)CCN1CCOCC1)c1ccccc1S2 the results were HPGD inh -2%.
Screening C[n+]1c2n(c3ccccc31)N=C(c1ccccc1)CS2 returned HPGD inh -7%.
`COc1ccc(Oc2nnc(-c3ccc(C)cc3)c3ccccc23)cc1` gave HPGD inh -15%.
Screening CCC(c1nnnn1C1CCCC1)N1CCN(c2ccccc2F)CC1 (stereo not drawn) returned HPGD inh -9%.
Cn1c(=O)[nH]c2sc3c(c2c1=O)CC(C)(C)OC3 was read as HPGD inh inconclusive.
Screening O=C(NCc1cccnc1)c1c[nH]c2cc3c(cc2c1=O)OCCO3 returned HPGD inh inconclusive.
`COc1cc(Cl)c(C)cc1NC(=O)COC(=O)/C=C/c1c(C)nn(C2CCS(=O)(=O)C2)c1Cl` (stereo not drawn) gave HPGD inh -15%.
CCN(CC(=O)O)CC(=O)O was read as HPGD inh -11%.
For CC(C)(C)C(=O)Nc1sc2c(c1-c1nc3ccccc3[nH]1)CCCC2 the results were HPGD inh inconclusive.
For CC(C)(C)c1nn(-c2ccccc2)c2nc(Cl)c(C=O)cc12 the results were HPGD inh -2%.
`CCOc1nc(-c2ccccc2)ccc1-c1noc(COc2ccccc2)n1` gave HPGD inh inconclusive.
`O=c1/c(=C/c2ccccn2)sc2nc3ccccc3n12` gave HPGD inh -8%.
`COc1ccc(C)cc1S(=O)(=O)Nc1cccc(Cl)c1` gave HPGD inh -18%.
For Cn1c(=O)cc(SCC(=O)NCCCN2CCOCC2)c2ccc(Cl)cc21 the results were HPGD inh -16%.
For O=C(CN1C(=O)NC2(CCCC2)C1=O)Nc1nc(-c2ccc(F)cc2)cs1 the results were HPGD inh -6%.
For CC(=O)c1cc(Cc2csc(C(C)=O)c2)cs1 the results were HPGD inh -5%.
O=C(c1ccccc1)N(Cc1ccccc1)c1ccccn1 was read as HPGD inh -8%.
For O=C(O)c1cc2n(n1)C(C(F)(F)F)CC(c1ccco1)N2 (stereo not drawn) the results were HPGD inh 4%.
`CCOc1cccc(NC(=O)C2CC(=O)N(C)C(=Nc3cccc(F)c3)S2)c1` (stereo not drawn) gave HPGD inh -15%.
Screening CN(C)c1cccc2c(S(=O)(=O)N3CCOCC3)cccc12 returned HPGD inh -2%.
`CCC(=O)Nc1ccccc1C(=O)N1CCOCC1` gave HPGD inh -13%.
Screening C/C=C(\C)[C@H](O)C[Si](C)(C)c1ccccc1 returned HPGD inh -10%.
Screening CCN(CC)CCOC(=O)c1ccc2c(c1)OCCO2 returned HPGD inh -22%.
`Cc1nn(CC(=O)Nc2cccc(S(N)(=O)=O)c2)c(C)c1[N+](=O)[O-]` gave HPGD inh -10%.
`O=C(NCC1COc2ccccc2O1)c1ccc(NC(=O)C(c2ccccc2)c2ccccc2)cc1` (stereo not drawn) gave HPGD inh -10%.
`CC12CCC(C/C1=N\OC(=O)c1ccc(F)cc1)C2(C)C` (stereo not drawn) gave HPGD inh -10%.
Screening Cc1ccccc1-c1cc(C(=O)Nc2nc3c(s2)CCCC3)c2ccccc2n1 returned HPGD inh inconclusive.
CCN(CC)P(=O)(C(NC(=O)OC)C(F)(F)C(F)(F)C(F)(F)C(F)F)N(CC)CC (stereo not drawn) was read as HPGD inh -9%.
For CCOc1cccc(C2C(C(=O)c3ccco3)=C(O)C(=O)N2Cc2ccncc2)c1 (stereo not drawn) the results were HPGD inh -12%.
For CCN(CC(=O)NC(=O)NCc1ccco1)Cc1nc2ccccc2c(=O)[nH]1 the results were HPGD inh -24%.
For COc1ccc(/C=N\NC(=O)/C(=C\Nc2nccc(C)n2)NC(=O)c2ccccc2)cc1 the results were HPGD inh inconclusive.
`COc1ccc(-c2ocnc2C(=O)Nc2ccccc2N2CCCCC2)cc1` gave HPGD inh inconclusive.
For Cc1ccc(/C=N/N2C(=O)C3C(C2=O)C2C=CC3C23CC3)o1 (stereo not drawn) the results were HPGD inh -17%.
`Cc1onc(-c2ccccc2Cl)c1C(=O)N1CCN=C1SCc1cccnc1` gave HPGD inh -6%.
COc1ccc(/C=N\NC(=O)COc2ccc(C(C)(C)C)cc2)cc1Cn1nc(C)cc1C was read as HPGD inh -12%.
`CCOc1ccc(S(=O)(=O)Nc2cc(S(=O)(=O)N(CC)CC)ccc2N2CCCC2)cc1` gave HPGD inh -11%.
Screening O=C(c1ccc(CS(=O)(=O)c2ccccc2)o1)N1CCOCC1 returned HPGD inh 3%.
For COC(=O)c1[nH]c(=O)c2ccccc2c1O the results were HPGD inh -26%.
`O=C(CCc1nc(-c2ccccc2)no1)Nc1cc(C(F)(F)F)ccc1Cl` gave HPGD inh -12%.
For O=C(N/N=C/c1ccccc1)c1cc(-c2ccc3c(c2)OCO3)n[nH]1 the results were HPGD inh -6%.
Screening COc1cc(NS(=O)(=O)N2CCCC2)cc(OC)c1OC returned HPGD inh -19%.
`CS(=O)(=O)N(Cc1ccccc1)c1ccc(C(=O)N2CCOCC2)cc1` gave HPGD inh -13%.
For CCCCN(CC)C(=O)c1ccc2c(c1)OCO2 the results were HPGD inh 13µM*.
Cn1c(=NCC(O)COc2ccccc2)sc2ccccc21 (stereo not drawn) was read as HPGD inh -20%.
Screening O=C(NCC(=O)N(c1ccccc1)C(C(=O)NC1CCCC1)c1cccnc1)c1ccco1 (stereo not drawn) returned HPGD inh -5%.
`CC1(C)Cc2c(cnn2-c2ccccc2)C(=O)/C1=N\NC(=O)c1ccccc1` gave HPGD inh -25%.
`Cc1ccc(Sc2ncccc2C(=O)O)c(C)c1` gave HPGD inh -10%.
Cc1nc(N2CCN(c3ccccc3)CC2)nc2c1C(=O)CCC2 was read as HPGD inh inconclusive.

Entries shown so far that have a Cl atom (9):
Screening O=C(Nc1ccc(Cl)cc1F)c1cc(S(=O)(=O)N2CCCCC2)ccc1F returned HPGD inh -7%.
`CC1=CC2=NC(=O)/C(=C\c3ccc(-c4cccc(Cl)c4)o3)C(=N)N2O1` gave HPGD inh -4%.
O=C(O)c1c(Cl)c(Cl)c(Cl)c(Cl)c1C(=O)N1CCOCC1 was read as HPGD inh 1%.
`COc1cc(Cl)c(C)cc1NC(=O)COC(=O)/C=C/c1c(C)nn(C2CCS(=O)(=O)C2)c1Cl` (stereo not drawn) gave HPGD inh -15%.
For CC(C)(C)c1nn(-c2ccccc2)c2nc(Cl)c(C=O)cc12 the results were HPGD inh -2%.
`COc1ccc(C)cc1S(=O)(=O)Nc1cccc(Cl)c1` gave HPGD inh -18%.
For Cn1c(=O)cc(SCC(=O)NCCCN2CCOCC2)c2ccc(Cl)cc21 the results were HPGD inh -16%.
`Cc1onc(-c2ccccc2Cl)c1C(=O)N1CCN=C1SCc1cccnc1` gave HPGD inh -6%.
`O=C(CCc1nc(-c2ccccc2)no1)Nc1cc(C(F)(F)F)ccc1Cl` gave HPGD inh -12%.

Next section
For Cc1ccc(Cl)cc1Nc1nc(-c2sc(NC(=O)c3cccc(Cl)c3)nc2C)cs1 the results were HPGD inh -19%.
COc1ccc2c3c1OC1C[C@@H](O)C=C[C@@]31CCN(C)C2 (stereo partly drawn) was read as HPGD inh 2%&-3%.
For Cc1cccc(Oc2ncc(-c3ccc(Cl)cc3)cn2)c1C the results were HPGD inh -12%.
For CCOC(=O)CCc1c(C)c2ccc(OCc3nn[nH]n3)cc2oc1=O the results were HPGD inh inconclusive.
For COc1cc(Cl)cc(C2NC(=O)NC(C)=C2C(C)=O)c1OCC(=O)O (stereo not drawn) the results were HPGD inh -9%.
Nc1nc2c(s1)CCc1c-2cnn1-c1ccccc1 was read as HPGD inh inconclusive.
Screening CCOc1ccc2ccccc2c1CNCCN1CCOCC1 returned HPGD inh -4%.
Cc1cccc(OCC(=O)Nc2cc(C)ccc2O)c1 was read as HPGD inh -29%.
Screening Cn1c(C(=O)Nc2ccccc2)cc2sccc21 returned HPGD inh -22%.
Screening CCOC(=O)N1CCC(N2C(=O)c3ccccc3C2Nc2ccc(C)cc2)CC1 (stereo not drawn) returned HPGD inh -5%.
For O=C(Cc1ccc(S(=O)(=O)N2CCCC2)s1)N1CCOCC1 the results were HPGD inh 1%.
`Cn1c(SCC(=O)N2CCOCC2)nnc1-c1ccccc1` gave HPGD inh -9%.
Screening Cc1ccc2nc(SC(C)C(=O)Nc3cccc([N+](=O)[O-])c3)[nH]c2c1 (stereo not drawn) returned HPGD inh inconclusive.
COc1ccc(NC(=O)c2sccc2SCc2cccc(C(F)(F)F)c2)cc1 was read as HPGD inh inconclusive.
`Cc1[nH]n(-c2ccc(Cl)cc2)c(=O)c1/C=N/c1nnc(-c2ccccc2)s1` gave HPGD inh 28µM*.
`COC(=O)c1ccc(NC(=O)CSc2nccn2CCc2ccccc2)cc1` gave HPGD inh -23%.
COc1cccc(Nc2nnc(SCn3nnc4ccccc4c3=O)s2)c1 was read as HPGD inh -12%.
For Cn1c(=O)c2c(nc3sccn32)n(C)c1=O the results were HPGD inh -9%.
For S=c1[nH]nc(Cc2ccccc2)n1Cc1ccco1 the results were HPGD inh -10%.
Screening O=C(NCc1ccccn1)NC12CC3CC(CC(C3)C1)C2 returned HPGD inh 4%.
`CCOc1ccc(NC(=O)COC(=O)CCCc2c[nH]c3ccccc23)cc1` gave HPGD inh -16%.
COC(=O)NC(=S)N1CCOCC1 was read as HPGD inh -3%.
For CCC(C)(c1ccc(C=O)s1)c1ccc(C=O)s1 the results were HPGD inh -18%.
`Cn1c(SCC(=O)N/N=C/c2ccc([N+](=O)[O-])s2)nnc1-c1ccc(Cl)cc1` gave HPGD inh -13%.
For COc1ccc(CNC(=O)C/C(C)=N/NC(=O)C(c2ccccc2)c2ccccc2)cc1 the results were HPGD inh -1%.
For CN(C)S(=O)(=O)c1cc(NC(=O)[C@H](Cc2ccccc2)N2C(=O)c3ccccc3C2=O)ccc1Cl the results were HPGD inh 0%.
`CCOC(=O)c1cnc(SC)nc1Oc1cccc(NC(=O)c2cccc(Cl)c2Cl)c1` gave HPGD inh -16%.
`COc1ccc(C(=O)CSc2nnc(CN3CCCC3)n2-c2ccc(F)cc2)c(OC)c1` gave HPGD inh -1%.
Screening O=C(Nc1ccc2c3c(cccc13)CC2)c1cccc([N+](=O)[O-])c1 returned HPGD inh -20%.
Screening Cc1cc(N(CC(=O)O)S(C)(=O)=O)ccc1Br returned HPGD inh 10%.
Screening CCOC(=O)c1ccccc1NS(=O)(=O)c1ccc(C)cc1 returned HPGD inh -12%.
`Cc1sc2ncnc(NCc3ccccc3)c2c1C` gave HPGD inh -17%.
`CC(C)(C)c1ccc(/C=N/NC(=S)NCc2ccccc2)cc1` gave HPGD inh -16%.
For O=C(c1cccc(F)c1)N1CCN=C1SCc1cccnc1 the results were HPGD inh -9%.
For CC1=NN(C(=O)COc2ccc(C)c(C)c2)C(O)(c2ccccc2)C1 (stereo not drawn) the results were HPGD inh -14%.
For CCCCn1c(SCC(=O)Nc2cc(C)on2)nnc1-c1ccco1 the results were HPGD inh -7%.
